SARS PLpro yeast: SARS-CoV PLP inhibition in yeast; S. cerevisiae expressing SARS-CoV PLpro, growth rescue; control for the full effect not named in the record; Potency, µM (doses to about 32.9 µM), without a hit: top-dose activity, positive = growth rescue; 330,000 compounds, 0.19% hits; active means well fitted rising curve with a large enough effect; inconclusive means small, poorly fitted or top-dose-only effect; inactive means no such curve, though single readings can be large or run the other way; further: 0% is about no effect; nearly all actives have a fitted effect of over 55% in size; growth read by luminescence after 48 h
StopGo reporter: FMDV 2A StopGo reporter, luciferase signal. human cells with a luciferase reporter of 2A StopGo recoding; control for the full effect not named in the record. Potency, µM (series often up to 57.9 µM), for inactives: top-dose signal change, negative = less light. 410,000 compounds, 1.2% hits. AID 1159524; active = well fitted falling curve with a large enough effect; inconclusive = small, poorly fitted or top-dose-only effect; inactive = no such curve, though single readings can be large or run the other way; tested in HEK293T cells; further: on the % scale 0 is the no-effect control and ±100 the full control effect; nearly all actives have a fitted effect of over 45% in size; luciferase light after 4 h
NS1 function inh: inhibitors of influenza NS1 protein function. Potency, µM (doses to about 46.1 µM), inactives show at the highest dose activity, positive = more growth. AID 2326. S. cerevisiae slowed by influenza A NS1, growth recovery by OD600. 270,000 compounds, 0.4% hits; active means well fitted rising curve with a large enough effect; inconclusive means small, poorly fitted or top-dose-only effect; inactive means no such curve, though single readings can be large or run the other way; further: nearly all actives have a fitted effect of over 50% in size
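OD600 was taken as the measure of yeast growth restored by compound in an NS1-expressing S. cerevisiae strain. Cells had been washed out of glucose medium and diluted 1:100 into galactose -URA medium, pH 6.0.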
Lassa entry inh: blocks Lassa virus binding to or entry into cells | Potency, µM (titrated, usually from 37.9 µM), for inactives: at the highest dose activity change, negative = inhibition, most hits filed as inhibitors | AID 540256 | 300,000 compounds, 1.2% hits | Lassa virus pseudotype entry inhibition, cell reporter; control for the full effect not named in the record; active means well fitted inhibition curve with a large enough effect; inconclusive means small, poorly fitted or top-dose-only effect, or effect the other way; inactive means flat fitted curve, though single readings scatter; tested in HEK293 cells; further: on the % scale 0 is the no-effect control and ±100 the full control effect; nearly all actives have a fitted effect of over 50% in size; luciferase read-out
MARV entry inh: inhibitors of Marburg virus binding or cell entry; Potency, µM (titrated, usually from 37.8 µM), without a hit: top-dose activity change, negative = inhibition, most hits filed as inhibitors; 300,000 compounds, 1.8% hits; Marburg virus pseudotyped entry inhibition, cell reporter; control for the full effect not named in the record; about a third of the inactives were read at about 46 µM; AID 540276; active = well fitted inhibition curve with a large enough effect; inconclusive = small, poorly fitted or top-dose-only effect, or effect the other way; inactive = flat fitted curve, though single readings scatter; tested in HEK293 cells; about a fifth of its hits are not listed in these tables; further: on the % scale 0 is the no-effect control and ±100 the full control effect; luciferase read-out
Cruzain inh Det: blocks cruzain activity in presence of Triton detergent; purified cruzain, Z-FR-AMC fluorescence, 0.01% Triton; Potency, µM, for inactives: max response, negative = inhibition, usual class: inhibitors; 200,000 compounds, 0.43% hits; AID 1478;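 further: plate controls were neutral wells for no effect and buffer without enzyme for full effect; nearly all actives have a fitted effect of over 40% in size; top concentration of the series not given in the record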
Target sequence (P25779 123-467 limits assumed): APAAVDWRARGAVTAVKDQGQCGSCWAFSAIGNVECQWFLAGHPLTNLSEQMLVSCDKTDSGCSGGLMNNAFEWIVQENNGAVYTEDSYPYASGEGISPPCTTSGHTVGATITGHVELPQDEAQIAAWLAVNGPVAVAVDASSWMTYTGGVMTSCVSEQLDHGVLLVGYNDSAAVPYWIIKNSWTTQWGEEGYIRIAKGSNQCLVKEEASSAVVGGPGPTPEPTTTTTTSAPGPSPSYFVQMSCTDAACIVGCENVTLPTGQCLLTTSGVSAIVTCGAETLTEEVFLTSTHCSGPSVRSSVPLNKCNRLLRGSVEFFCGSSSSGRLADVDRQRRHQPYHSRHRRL
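In this qHTS format, compounds are incubated with 1.5 nM cruzain for 15 min at room temperature before 2 uM Z-FR-AMC is added. Release of AMC is followed at 360/450 nm, and progress is taken as the 60 s fluorescence difference.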
Cruzain noTriton: inhibitors of Trypanosoma cruzi cruzain without detergent. Potency, µM, inactives show max response, negative = inhibition, usual class: inhibitors. 200,000 compounds, 2.3% hits. purified cruzain, Z-FR-AMC fluorescence, no detergent. P25779;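 further: plate controls were enzyme without inhibitor for no effect and buffer without enzyme for full effect; nearly all actives have a fitted effect of over 40% in size; top concentration of the series not given in the record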
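Detergent-free condition (0.00005% Triton X-100) in acetate buffer pH 5.5 with DTT. 1.5 nM enzyme and compound were pre-mixed 15 min, then 2 uM Z-FR-AMC substrate added; reaction progress from fluorescence change between first and third reads (60 s).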
RE007 growth inh: less growth of the S. pombe RE007 Vpr strain; S. pombe RE007 Vpr strain, BacTiter-Glo ATP luminescence, 24 h; control for the full effect not named in the record; Potency, µM (series often up to 92.2 µM), inactives show at the top dose activity change, negative = less growth; 360,000 compounds, 0.21% hits; AID 651644; active = well fitted falling curve with a large enough effect; inconclusive = small, poorly fitted or top-dose-only effect; inactive = no such curve, though single readings can be large or run the other way;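 further: on the % scale 0 is the no-effect control and ±100 the full control effect; nearly all actives have a fitted effect of over 50% in size; the assay follows cell death caused by Vpr and the record does not say whether a fall means rescue or toxicity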
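Fission yeast RE007 carrying one integrated HIV-1 vpr copy, seeded at OD 0.01 in PMG+AL medium with 23 nL pinned compound. Grown 24 h at 30 degrees; viability read by BacTiter-Glo luminescence after 5 min.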
* hit, by the source's call; ? = inconclusive; / = no result given; & = joins results of further samples; [ ] = dose if it differs, or a comment. Unless noted, the call rests on the fitted dose curve; in most records, active means well fitted curve in the direction sought with a large enough effect; inconclusive means small, poorly fitted or top-dose-only effect, or another doubt; inactive means no such curve, though single readings can be large; an effect the other way counts as inactive or inconclusive. Potency means the concentration at half of the fitted maximal effect. Compounds as they come (roughly 4.8% active in at least one column).

SMILES	SARS PLpro yeast	StopGo reporter	NS1 function inh	Lassa entry inh	MARV entry inh	Cruzain inh Det	Cruzain noTriton	RE007 growth inh
CCCC(CCC)C(=O)NC1CC(=O)N(c2ccc3c(c2)OCCO3)C1 (stereo not drawn)	/	-6%	/	20%[46.1 µM]	/	-0.6%	-4%	/
COC(=O)C1(S(=O)(=O)c2ccc(C)cc2)CCOCC1	7%	/	1%	1%	1%	2.9%	-5%	6%
O=C(COc1ccc(Cl)cc1)c1ccc(O)cc1O	-3%	8%	-96%	?	-1%[46.1 µM]	/	/	-10%
CC(=O)c1cc2c(cc1NC(=O)CCNC(=O)c1ccccc1Cl)OCO2	?	11%	-7%	-6%	-20%	-4.6%	2%	1%
O=C(C1CCC(CNS(=O)(=O)c2cccs2)CC1)N1CCN(c2ccc(Cl)cc2)CC1 (stereo not drawn)	-4%	32µM*	13%	?	/	-2.5%	-4%	-12%
CCO[C@@H]1OC(C(=O)NC2CC2)=C[C@H](c2csc3ccccc23)[C@H]1CCCO	0%	-2%	-1%	/	/	/	/	11%
COc1ccc(N2CN=C3SCC(=O)N3C2)cc1	11%	16%	-16%	22%	?	-1.6%	-4%	12%
Cc1c(NC(=O)c2cc([N+](=O)[O-])ccc2N2CCOCC2)cccc1-c1nc2ccccc2o1	/	-20%	/	?	-4%[46.1 µM]	-0.5%	3%	/
CCOC(=O)C(CC)Sc1nnc2c3cc(C)ccc3n(C)c2n1 (stereo not drawn)	-3%	0%	-1%	?	-21%	-13%	?	20%
Cc1nc2ccn(Cc3cccnc3)c(=O)c2cc1C(=O)NCc1ccc(Cl)cc1	/	-15%	/	?	/	-4.0%	2%	/
CC1(CCC(=O)N2CCCC(N3CCN(c4cccc(C(F)(F)F)c4)CC3)C2)CC1 (stereo not drawn)	0%	-22%	-56%	/	/	/	/	9%
CC1CCN(C(=O)CCCl)c2ccccc21 (stereo not drawn)	/	-5%	/	-20%	-11%	/	/	7%
CC(=O)N(OCc1ccc(OC(C)C)c(Cl)c1)C(C)=O	0%	-11%	-7%	/	/	/	/	-1%
CC1(C)Cc2ccccc2-c2nnc(-c3ccco3)n21	-8%	-17%	-86%	-4%	11%	2.4%	9%	-13%
Cn1cccc1Cc1nnc(SCC(=O)Nc2ccc3c(c2)OCCO3)n1-c1ccc(F)cc1	21%	-4%	?	-12%	-7%&-7%	-2.7%	-9%	-11%
Cc1cc(NC(=O)CCCSc2nc(-c3ccco3)cc(C(F)(F)F)n2)no1	2%	0%	-2%	?	-30%	-0.7%	?	8%
COc1ccc(C(O)(CCN2CCOCC2)c2ccccc2)cc1 (stereo not drawn)	1%	-19%	-1%	-12%[46.1 µM]	-7%[46.1 µM]	/	/	56%
CC1CCN(C(=O)CC#N)CC1	0%	-7%	0%	/	/	/	/	1%
CCOc1ccc(OCCC(=O)OCC(=O)NC(C)c2ccccc2)cc1 (stereo not drawn)	-6%	-6%	/	-4%	-5%	/	/	2%
O=C(N/N=C/c1ccccc1[N+](=O)[O-])c1ccc2nc[nH]c2c1	0%	12%	4%	-2%[46.1 µM]	?	/	/	-10%
COc1ccc(NC(=O)c2cc(=O)[nH]c(=O)[nH]2)cc1S(=O)(=O)Nc1ccccc1Cl	-1%	35%[activator]	/	-12%[46.1 µM]	5%[46.1 µM]	/	/	-9%
O=C(CN1C(=O)CSc2ccccc21)N1CCc2ccccc21	-1%	6%	?	3%	?	-6.4%	-14%	-6%
OCCN(CCO)c1cc2c3ccccc3ccc2c2ccccc12	/	?	/	?	-6%	/	/	?
CNS(=O)(=O)c1cccc(C(=O)OCC(=O)c2cc(C)n(CC3CCCO3)c2C)c1 (stereo not drawn)	1%	12%	/	13µM*	?	/	/	1%
Cc1ccccc1NC(=O)N1CCc2cc(S(=O)(=O)N3CCC(C)CC3)ccc21	/	-6%	/	/	-16%[46.1 µM]	-0.4%	13%	/

Other structures:
SMILES	SARS PLpro yeast	StopGo reporter	NS1 function inh	Lassa entry inh	MARV entry inh	Cruzain inh Det	Cruzain noTriton	RE007 growth inh
O=C(CCCOc1ccccc1)NCCc1nc2ccccc2[nH]1	1%	9%	-5%	13%	12%[46.1 µM]	/	/	-16%
CC(Oc1ccccc1)C(=O)N1CCN=C1SCc1cccc(F)c1 (stereo not drawn)	3%	-21%	-33%	/	/	/	/	1%
Cc1csc2nc(-c3ccc(NS(=O)(=O)c4cc(F)ccc4F)cc3)cn12	/	8%	/	15%[46.1 µM]	/	-3.8%	32µM*	/
O=C(NCCS(=O)(=O)N1CCN(c2ccccc2F)CC1)c1ccc(Cl)cc1	1%	4%	/	6%	10%	/	/	-8%
O=c1c2c3c(sc2nc2n1CCCCC2)CCCCC3	5%	/	-1%	/	2%	-8.7%	0%	/
O=C(CN1C(=O)c2ccc(Br)cc2C1=O)NCC1CCCO1 (stereo not drawn)	3%	-21%	22%	/	/	/	/	17%
CCCCc1nnc(NC(=O)CN2C(=O)NC3(CCCCC3)C2=O)s1	1%	-20%	4%	-14%	?	/	/	-4%
Cc1ccc(C(=O)Nc2ccc(N3CCN(S(C)(=O)=O)CC3)cc2)cc1	-6%	/	4%	-1%	?	5.3%	16µM*	-6%
O=C(NCCc1ccccc1)C1CCCN1S(=O)(=O)c1ccc(Cl)cc1 (stereo not drawn)	-3%	9%	-2%	6%	?	/	/	3%
CCn1c(=N)c(C(=O)NC2CCCCC2)cc2c(=O)n3cccc(C)c3nc21	/	6%	/	?	?	92%[activator]	10%	/
COc1ccc(-c2noc(C3CCCN(C(=O)c4cccc(F)c4)C3)n2)cc1 (stereo not drawn)	-5%	0%	-9%	?	?	/	/	27%
COc1ccc(OC)c(/C=C2\NC(=O)NC2=O)c1	0%	-19%	4%	/	/	/	/	-6%
COCCNC(=O)Cn1c(=O)n(Cc2ccc(C(=O)NCCc3ccc(OC)c(OC)c3)cc2)c(=O)c2ccccc21	1%	-12%&6%	/	-6%	-20%&1%[46.1 µM]	-3.0%	?	-18%
Cc1c(Cl)cccc1NC(=S)NCCC(C)C	-7%	48%[activator]	30%	4%	-5%	-2.5%	-10%	4%
CCS(=O)(=O)Nc1cccc(-c2ccc3nnc(-c4cccnc4)n3n2)c1	1%	-25%	-10%	/	/	/	/	-6%
CCCn1c(=O)c2[nH]c(-c3ccc(OCC(=O)Nc4ccc(C#N)cc4)cc3)nc2n(CCC)c1=O	/	-21%&-9%	2%	/	?	-5.9%	-9%	59%[18.4 µM]
COc1ccc(OC)c(C2CC(=O)Nc3c2c(=O)n(C)c2ncnn32)c1 (stereo not drawn)	/	12%	/	22%[46.1 µM]	1%[46.1 µM]	-1.8%	-4%	/
COc1ccc(C)cc1NC(=O)c1sc2nc(C)nc(N3CCOCC3)c2c1C	-2%	-8%	3%	8%[46.1 µM]	9%[46.1 µM]	/	/	-1%
COc1ccc(CN2CCC(C)CC2)cc1OCc1ccccc1	-1%	-29%	3%	/	/	/	/	-24%
CCC(=O)N1CCc2cc(S(=O)(=O)NC(Cc3ccccc3)C(=O)NCc3cccc(OC)c3)ccc21 (stereo not drawn)	/	21%	/	?	-26%[46.1 µM]	-1.4%	-1%	/
COc1ccc(/C=N\NS(=O)(=O)c2ccc(Br)cc2)cc1COc1ccccc1[N+](=O)[O-]	2%	17%	17%	-30%	-23%	-4.2%	?	0%
O=c1ccc2cc(S(=O)(=O)N3CCN(c4ccccc4F)CC3)ccc2o1	-3%	?	-2%	-17%	-2%[46.1 µM]	/	/	-9%
Cc1nc2cc(NC(=O)Nc3ccccc3Cl)ccc2n1C	-1%	-73%	1%	?	?	/	/	?
CN(C)c1ccnc2sc(C(=O)c3ccc(Br)cc3)c(N)c12	1%	37%[activator]	?	15%	22%[46.1 µM]	/	/	11%

Rewritten with bars between the fields: entries from further up
SMILES | SARS PLpro yeast | StopGo reporter | NS1 function inh | Lassa entry inh | MARV entry inh | Cruzain inh Det | Cruzain noTriton | RE007 growth inh
COCCNC(=O)Cn1c(=O)n(Cc2ccc(C(=O)NCCc3ccc(OC)c(OC)c3)cc2)c(=O)c2ccccc21 | 1% | -12%&6% | / | -6% | -20%&1%[46.1 µM] | -3.0% | ? | -18%
Cc1c(Cl)cccc1NC(=S)NCCC(C)C | -7% | 48%[activator] | 30% | 4% | -5% | -2.5% | -10% | 4%
CCS(=O)(=O)Nc1cccc(-c2ccc3nnc(-c4cccnc4)n3n2)c1 | 1% | -25% | -10% | / | / | / | / | -6%
CCCn1c(=O)c2[nH]c(-c3ccc(OCC(=O)Nc4ccc(C#N)cc4)cc3)nc2n(CCC)c1=O | / | -21%&-9% | 2% | / | ? | -5.9% | -9% | 59%[18.4 µM]
COc1ccc(OC)c(C2CC(=O)Nc3c2c(=O)n(C)c2ncnn32)c1 (stereo not drawn) | / | 12% | / | 22%[46.1 µM] | 1%[46.1 µM] | -1.8% | -4% | /
COc1ccc(C)cc1NC(=O)c1sc2nc(C)nc(N3CCOCC3)c2c1C | -2% | -8% | 3% | 8%[46.1 µM] | 9%[46.1 µM] | / | / | -1%
COc1ccc(CN2CCC(C)CC2)cc1OCc1ccccc1 | -1% | -29% | 3% | / | / | / | / | -24%
CCC(=O)N1CCc2cc(S(=O)(=O)NC(Cc3ccccc3)C(=O)NCc3cccc(OC)c3)ccc21 (stereo not drawn) | / | 21% | / | ? | -26%[46.1 µM] | -1.4% | -1% | /
COc1ccc(/C=N\NS(=O)(=O)c2ccc(Br)cc2)cc1COc1ccccc1[N+](=O)[O-] | 2% | 17% | 17% | -30% | -23% | -4.2% | ? | 0%
O=c1ccc2cc(S(=O)(=O)N3CCN(c4ccccc4F)CC3)ccc2o1 | -3% | ? | -2% | -17% | -2%[46.1 µM] | / | / | -9%
Cc1nc2cc(NC(=O)Nc3ccccc3Cl)ccc2n1C | -1% | -73% | 1% | ? | ? | / | / | ?
CN(C)c1ccnc2sc(C(=O)c3ccc(Br)cc3)c(N)c12 | 1% | 37%[activator] | ? | 15% | 22%[46.1 µM] | / | / | 11%

Compound activity: PubChem BioAssay, National Center for Advancing Translational Sciences (NCATS)
